# Assay outcomes from PubChem.
# Anaer choline gr – inhibitors of anaerobic choline-dependent gram-negative bacterial growth. AID 1963822. Gram-negative bacterium anaerobic choline minimal medium, absorbance growth; stronger effect = lower value; many inactives read as strong as hits in the columns shown. calls only. 55,000 tested, 0.2% active;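 active = growth z-score on choline under -2 at 7 or 20 h with little or no fall on glycerol, limits in tiers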;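 also: stock transfer was 300 nL into about 50 µL; the organism is E. coli; final concentration not given here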
# Anaer choline gr early – further read-out of Anaer choline gr, marked with its call; z-score; measured here: choline growth z-score, timepoint 1;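 score of optical density at 7 h as mean of two plates; lower means less growth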
# Active calls of the source: *; i = inactive; & = joins results of further samples.
SMILES,Anaer choline gr,Anaer choline gr early
O=C(c1cc(S(=O)(=O)N2CCCC2)ccc1Cl)N1CCN(c2ccccc2F)CC1,i,-0.17
N#CC1=CN(c2ccc(F)c(F)c2)c2ccc(F)cc2S1(=O)=O,i,-0.29
CCOC(=O)c1[nH]c(C)c(CCC(=O)N2CCCC(C(=O)NCCCN3CCCC3=O)C2)c1C (stereo unspecified),i,0.21
Cc1ccc(C)c(N2CCN(S(=O)(=O)c3ccc4c(c3)CC(=O)N4C)CC2)c1,i,0.68
Clc1ccccc1C(c1ccccc1)(c1ccccc1)n1ccnc1,i,0.11&0.57&-1.49
Cc1ccc(C)c(S(=O)(=O)N2CCC(c3noc(-c4ccc(F)cc4)n3)CC2)c1,i,0.34
Cc1cc(NC2CCCC2)n2nc(-c3ccccc3)c(C)c2n1,i,1.24
COc1ccc(NC(=O)c2ccnc(Nc3ccc(OC)c(OC)c3)c2)cc1,i,0.21
COCCCNC(=O)c1cc(-c2ccccc2)nc2n[nH]c(-c3ccccc3)c12,i,0.02
COc1cccc(NC(=O)CSc2nnc3c4cc(-c5ccccc5)nn4ccn23)c1,i,-0.24
CCOC(=O)N1CCC2(CC1)N=C(c1cc(Cl)ccc1O)CC(c1ccccc1)N2 (stereo unspecified),i,-0.32
Cc1ccc(NC(=O)CSc2nnc(NC(=O)NC3CCCCC3)s2)cc1,i,1.13
CCOC(=O)c1cc2c(Cl)ccc3c2n1CC(CC)O3 (stereo unspecified),i,0.79
COc1ccc(NC(=O)C2Nc3ccc(Cl)cc3S(=O)(=O)N2)c(OC)c1 (stereo unspecified),i,-1.14
Cc1ccc(NC(=O)Cc2csc(COc3ccc(Cl)c(C)c3)n2)c(C)c1,i,0.46
CSc1ccc(C(=O)c2[nH]c(=O)[nH]c2C)cc1,i,-0.31
CCC(c1ccccc1)c1nn2c(-c3ccccn3)nnc2s1 (stereo unspecified),i,0.95
Cc1ccc(-n2c(=O)[nH]cc(C(=O)Nc3ccc(S(N)(=O)=O)cc3)c2=O)cc1C,i,-0.39
Cc1ccc(-c2noc(CSc3nc4c(-c5ccccc5)c[nH]c4c(=O)[nH]3)n2)cc1,i,0.07
Cc1nc2ccccn2c(=O)c1NC(=O)c1ccc(F)cc1,i,-0.17
CCOc1ccc2c(c1)NC(c1ccc(N(C)C)cc1)=NC(c1ccc(F)cc1)=N2,i,0.7
Cn1ccc2cc(S(=O)(=O)N3CCC(C(=O)N4CCN(Cc5ccccc5)CC4)CC3)ccc21,i,0.9
Cc1nnc(NC(=O)COc2ccccc2-c2nc(C(C)C)no2)s1,i,-1.4
COc1ccc(S(=O)(=O)NCCc2c[nH]c3ncccc23)cc1OC,i,0.68
CCC(C)NC(=O)CN1C(=O)C(C)(C)c2cc(S(=O)(=O)N3CCCCC3)ccc21 (stereo unspecified),i,-0.5
CCOC(=O)c1cn(CC(=O)Nc2ccc(OC)c(Cl)c2)c2nc(C)ccc2c1=O,i,-0.65
CCn1cc(CN2CCCC(OCc3nc(C4CC4)no3)C2)cn1 (stereo unspecified),i,0.49
COc1ccc(C2CC(=O)Nc3c2cnn3-c2ccc3nnc(C)n3n2)c(OC)c1 (stereo unspecified),i,-0.26
COc1ccc(CNC(=O)c2ccc(CSc3nc4ccncc4n3Cc3ccc(F)cc3)cc2)cc1,i,0.12
O=S1(=O)CCC(S(=O)(=O)NCc2ccccc2)C1 (stereo unspecified),i,1.09
COc1ccc(C(=O)Nc2c(-n3cnnc3)nn(C)c2C)cc1OC,i,0.47
O=C(c1ccc2c(c1)nc1n2CCCC1)N1CCCCC1,i,-0.8
O=C1COc2ccc(C(=O)Nc3nccs3)cc2N1,i,1.45
Cc1nnc2ccc(N3CCC(C(=O)N4CCCCC4)CC3)nn12,i,-0.1
CCCN1CCN(S(=O)(=O)c2c(C)[nH]c(C(=O)OCC)c2C)CC1,i,-0.58
Cc1nc2c(c(N(C)CCc3c(C)nn(C)c3C)n1)CCC2,i,0.67
CC(=O)N1CCCSc2ccc(S(=O)(=O)N3CCN(C)CC3)cc21,i,1.91
CCc1nc(-c2cc(S(=O)(=O)N3CC=C(c4ccccc4)CC3)c(C)s2)no1,i,2.9
C=CCOc1ccccc1C1CC(=O)Nc2c1c(C)nn2-c1ccc2nncn2n1 (stereo unspecified),i,1.98
COc1ccc(NC(=O)CSc2nnc(-c3cccnc3)o2)c(OC)c1,i,0.09

# Reprinted from the listing, 7 compounds:
SMILES,Anaer choline gr,Anaer choline gr early
CCOc1ccc2c(c1)NC(c1ccc(N(C)C)cc1)=NC(c1ccc(F)cc1)=N2,i,0.7
Cn1ccc2cc(S(=O)(=O)N3CCC(C(=O)N4CCN(Cc5ccccc5)CC4)CC3)ccc21,i,0.9
Cc1nnc(NC(=O)COc2ccccc2-c2nc(C(C)C)no2)s1,i,-1.4
COc1ccc(S(=O)(=O)NCCc2c[nH]c3ncccc23)cc1OC,i,0.68
CCC(C)NC(=O)CN1C(=O)C(C)(C)c2cc(S(=O)(=O)N3CCCCC3)ccc21 (stereo unspecified),i,-0.5
CCOC(=O)c1cn(CC(=O)Nc2ccc(OC)c(Cl)c2)c2nc(C)ccc2c1=O,i,-0.65
CCn1cc(CN2CCCC(OCc3nc(C4CC4)no3)C2)cn1 (stereo unspecified),i,0.49

# Record cards (already shown):
# `Clc1ccccc1C(c1ccccc1)(c1ccccc1)n1ccnc1` is listed with Anaer choline gr = i; Anaer choline gr early = 0.11&0.57&-1.49
# `Cc1ccc(NC(=O)Cc2csc(COc3ccc(Cl)c(C)c3)n2)c(C)c1` is listed with Anaer choline gr = i; Anaer choline gr early = 0.46
# `Cc1ccc(-c2noc(CSc3nc4c(-c5ccccc5)c[nH]c4c(=O)[nH]3)n2)cc1` is listed with Anaer choline gr = i; Anaer choline gr early = 0.07

# Next section:
SMILES,Anaer choline gr,Anaer choline gr early
CC(C(=O)Nc1ccc(Cl)cc1)n1nnc2sc3c(c2c1=O)CCCC3 (stereo unspecified),i,0.46
C[C@]12C=CC(=O)C=C1CCC1C2C(O)C[C@@]2(C)C1CC[C@]2(O)C(=O)COC(=O)CCC(=O)O (stereo partly specified),i,-0.94
Clc1ccc(-c2cn3cccnc3n2)cc1,i,-0.45
COc1ccc(NS(=O)(=O)c2c(C)c(C)cc3c(C)c(C(=O)N4CCCC4)oc23)c(OC)c1,i,0.77
O=C(NCc1ccccc1Cl)C1=NS(=O)(=O)c2ccccc2N1,i,-0.37
O=C(NCC1CCCO1)c1cnc2sccn2c1=O (stereo unspecified),i,-0.22
Cc1ccc(-c2csc3nc(N4CCOCC4)cc(=O)n23)cc1,i,0.43
Cc1cc(S(=O)(=O)NCC2(C)CCOCC2)ccc1F,i,0.01
COC(=O)c1c(C)sc(-c2c(-c3ccc(Br)cc3)[nH]c3[nH]c(=O)[nH]c(=O)c23)c1O,i,-0.51
CCCc1cc(C2CCCN2C(=O)Nc2ccc3c(c2)OCO3)no1 (stereo unspecified),i,0.51
CCOc1ccc(S(=O)(=O)N2CCOCC2)cc1-c1nc(C(C)C)no1,i,-0.22
Cc1cccc(C)c1OCC(O)Cn1c(C2CC2)nc2ccccc21 (stereo unspecified),i,0.62
CCOC(=O)c1sc(NC(=O)c2ccc3c(c2)OCCO3)nc1C,i,0.54
CC(O)CN(CCN(CC(C)O)CC(C)O)CC(C)O (stereo unspecified),i,0.26
Cc1ccc(C2CCCN2S(=O)(=O)c2cccc3nsnc23)cc1 (stereo unspecified),i,1.13
COc1ccc(CN2CCCC2c2cc(C)on2)cc1COCC(F)(F)F (stereo unspecified),i,-0.73
CCn1ccc2cc(S(=O)(=O)N3CCCC(C(=O)NCCc4c(C)noc4C)C3)ccc21 (stereo unspecified),i,-0.61
COc1ccc(NC(=O)c2nn(C)c3c2CSc2ccccc2-3)cc1OC,i,0.8
COC(=O)c1c(NC(=O)C2=Cc3ccccc3OC=C2)sc(C)c1C,i,0.26
CCOC(=O)c1cnc2c(-c3ccccc3)c(COc3ccccc3)nn2c1N,i,-0.12
Cc1cc2nc(-c3cccc(NC(=O)c4ccc5c(c4)OCCO5)c3C)oc2cc1C,i,-0.51
O=S(=O)(c1ccc(Cl)cc1)n1nc(-c2cccnc2)nc1NCc1ccc(F)cc1,i,0.27
Cc1oc2ncnc(N3CCCCC3)c2c1C(=O)Nc1cccc(Cl)c1,i,-0.93
Cc1ccc(NC(=O)CCc2nc(-c3ccc(S(=O)(=O)N4CCCC4)cc3)no2)cc1Cl,i,1.2
CC(C)c1cc(NC2CCCCC2)n2nc(-c3cccnc3)nc2n1,i,-1.57
CCCn1cnc2c3nsnc3ccc21,i,0.29
CC(C)c1cc(C2CCCN2S(=O)(=O)c2ccc(Br)cc2)on1 (stereo unspecified),i,1.18
Cc1nc(-c2ccc(F)cc2)sc1CCNS(=O)(=O)c1cccc(Cl)c1,i,1.55
CC(=O)N1CCCSc2ccc(S(=O)(=O)N3CCCc4ccccc43)cc21,i,0.51
Cc1csc(NC(=O)Cc2csc(-n3nc(C)c(Cl)c3C)n2)n1,i,-0.67
O=c1ccc(-c2ccc3c(c2)OCO3)n[nH]1,i,-0.73
CS(=O)(=O)Nc1nc2ccc(NC(=O)CN3C(=O)COc4ccc(Cl)cc43)cc2s1,i,0.63
OC(CN1CCN(c2cccc(Cl)c2)CC1)c1ccc2c(c1)OCO2 (stereo unspecified),i,0.49
CCCCNC(=O)Cn1c(=O)n(-c2ccc(CC(=O)NCCC)cc2)c(=O)c2ccccc21,i,-0.26
Nc1ccc2ncnc(NCCc3ccc(Oc4ccccc4)cc3)c2c1,i,0.92&-1.55
CC(=O)N1c2ccc(S(=O)(=O)N3CCCCC3)cc2CC1C(=O)N1CCN(c2ccccn2)CC1 (stereo unspecified),i,0.22
CC(C)(C)c1csc(-c2csc(S(=O)(=O)Nc3cccc(Br)c3)c2)n1,i,0.89
CC(C)(C)C1CCc2c(sc3nc(CCC(=O)Nc4ccc(Cl)cc4)[nH]c(=O)c23)C1 (stereo unspecified),i,-0.04
CCC(=O)OCC(=O)[C@@]1(OC(=O)CC)[C@H](C)CC2C3C([C@@H](O)C[C@@]21C)[C@@]1(C)C=CC(=O)C=C1C[C@H]3Cl (stereo partly specified),i,0.3
CCc1cc(C2CCCN2C(=O)NCCC(C)C)on1 (stereo unspecified),i,0.08
COc1ccc(-c2cc(C(=O)Oc3ccc(C(C)C)cc3)no2)cc1,i,0.9
CCc1nnc(NC(=O)CSc2nc(=O)[nH]c3c2CCCC3)s1,i,0.98
Cc1cccc(NC(=O)Nc2ccccc2OCc2cc(=O)n3c(ncn3C(C)C)n2)c1C,i,-0.26
COc1ccc(S(=O)(=O)N2CCOc3ccc(COCc4ccccc4Cl)cc3C2)cc1,i,2.12
O=C(NCc1ccc(Cl)cc1)c1ccc(Nc2ncc(-c3cccc(F)c3)cn2)cc1,i,0.64
CC(C)CNC(=O)C(C)N1C(=O)CCCc2ccccc21 (stereo unspecified),i,0.67
CCOC(=O)c1nnc2c(-c3ccccc3)c(C)nn2c1C,i,0.07
Cc1cc(C2CCCN2Cc2sccc2C)on1 (stereo unspecified),i,-1.1
Cc1cc(Br)cc2c1N(CCCOc1ccccc1)C(=O)C2=O,i,0.6
COc1ccc(NC(=O)C2CCN(S(=O)(=O)c3ccc4c(c3)CCCN4C(C)=O)CC2)cc1,i,1.38
COC(=O)c1c(-c2cccc(Cl)c2)noc1NC1CCCc2ccccc21 (stereo unspecified),i,0.87
CCOc1ccc(-c2ccc(OCCNC(=O)COc3ccccc3)nn2)cc1,i,0.42
Cc1cccc(CCNC(=O)c2ccc(CNc3c(NC4CCCC4)c(=O)c3=O)cc2)c1,i,0.63
O=C(Nc1ccc2c(c1)OCCO2)c1cc2c(s1)CN(C1CC1)C2,i,0.42
NC(=O)c1c(NC(=O)c2cnn3c(C(F)F)cc(-c4ccccc4)nc23)sc2c1CCCC2,i,-0.35
CN(C)C(=O)c1ccc2c(c1)N(CC(=O)N1CCN(Cc3ccccc3)CC1)C(=O)CO2,i,-0.57
O=C(c1ccc2c(c1)OCO2)N1CCN(Cc2cc(=O)n3nc(-c4ccccc4F)sc3n2)CC1,i,-0.57
COc1cc(OC)c(NS(=O)(=O)c2c(C)nc3sc4ccccc4n3c2=O)cc1Cl,i,1.04
O=C(NCCC1=CCCCC1)c1cccc(Oc2cc(-c3ccc(F)cc3)ncn2)c1,i,2.71
CCOC(=O)c1cccc(NC(=O)NCc2c(C)nn(CC)c2C)c1,i,2.26

# More structures:
SMILES,Anaer choline gr,Anaer choline gr early
O=C(CCC(=O)N1CCSc2ccccc21)N1CCCCC1,i,1.14
CCOC(=O)C1CCN(C(=O)C2CCN(c3nnc(N4CCCC4=O)s3)CC2)CC1,i,0.87
CCN(CC)S(=O)(=O)c1ccc(-n2cnc(C(=O)Nc3cc(C(C)(C)C)ccc3O)c2)cc1,i,0.4
O=C(C1CCN(S(=O)(=O)Cc2ccc(Cl)cc2)CC1)N1CCOCC1,i,-0.23
O=C(NC1CCCc2ccccc21)C1CCN(c2cc(-c3cccc(F)c3)ncn2)CC1 (stereo unspecified),i,0.02
Brc1ccc(-c2ccc(CNCc3cccnc3)o2)c(Br)c1,i,-0.11
COc1ccc(-c2ccc(CNCc3ccco3)o2)cc1Cl,i,-0.3
Cc1ccc(N2C=C(C(=O)N3CCCC3)S(=O)(=O)c3ccccc32)cc1C,i,0.43
CCOc1ccc2c(c1)cc(C(=O)N1CCCC1)n2C,i,0.5
Cc1ccc(CSc2nnc3n(C)c(=O)c4sccc4n23)cc1,i,-0.62
Cc1cc(C)c(S(=O)(=O)Nc2cnc(N3CCNCC3)c(C(=O)N3CCCCC3C)c2)cc1C (stereo unspecified),i,0.29
Cc1cc2cc(CNC(=O)CC(C)C)ccc2[nH]1,i,-0.59
O=C(c1ccc(Br)cc1)N1CCC(c2nc3ccccc3s2)CC1,i,-1.04

# Only part of the results is shown; rates above refer to the full screens.
